FGF22 binding – binders of recombinant human FGF22 by thermal shift | 1.5% of 340,000 active | calls only at 9.99 µM | AID 651658 | SYPRO orange fluorescence; percent of sucrose octasulfate shift, DMSO zero | Q9HCT0;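 active = melting point raised past a set limit in the mean and every replicate; inconclusive = no clear call; three in four hits are not shown here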
Target sequence (Q9HCT0 whole entry, looked up): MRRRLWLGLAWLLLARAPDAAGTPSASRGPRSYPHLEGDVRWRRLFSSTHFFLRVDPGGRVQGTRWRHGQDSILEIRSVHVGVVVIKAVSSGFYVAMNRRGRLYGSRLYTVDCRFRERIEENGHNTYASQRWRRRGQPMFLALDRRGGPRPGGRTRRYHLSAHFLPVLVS
rRNA inh HTS – inhibits bacterial ribosomal RNA function over humanized ribosomes. E. coli WT GFP vs humanized-ribosome RFP mutants, fluorescence, 24 h; active compounds read low; DMSO median 0, no signal -100. GFP signal change (wild-type ribosome), % (no concentration beside the values). 1.6% of 350,000 active;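 active = significant combined selectivity score with lowered wild-type GFP, culture density cut under 30%, mutant RFP and density less affected; inactive = any of these conditions unmet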; note: one replicate is shown; some compounds called inactive have numbers as strong as hits
AF4-AF9 inh – blocks AF4 peptide binding to human AF9. 0.47% of 350,000 active. inhibition, % at 10 µM. AlphaScreen, biotin-AF4 peptide binding to FLAG-AF9. P42568;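 active = every replicate reaching a set inhibition limit, whatever the replicate mean, cut at about 25% in these data; inconclusive = mean inhibition reaches that limit but some replicates miss it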;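 note: 0% = plate neutral control median and 100% = total signal loss; the record names both 10 and 1 µM as test concentration; the first replicate is given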
Target sequence (P42568 whole entry, looked up): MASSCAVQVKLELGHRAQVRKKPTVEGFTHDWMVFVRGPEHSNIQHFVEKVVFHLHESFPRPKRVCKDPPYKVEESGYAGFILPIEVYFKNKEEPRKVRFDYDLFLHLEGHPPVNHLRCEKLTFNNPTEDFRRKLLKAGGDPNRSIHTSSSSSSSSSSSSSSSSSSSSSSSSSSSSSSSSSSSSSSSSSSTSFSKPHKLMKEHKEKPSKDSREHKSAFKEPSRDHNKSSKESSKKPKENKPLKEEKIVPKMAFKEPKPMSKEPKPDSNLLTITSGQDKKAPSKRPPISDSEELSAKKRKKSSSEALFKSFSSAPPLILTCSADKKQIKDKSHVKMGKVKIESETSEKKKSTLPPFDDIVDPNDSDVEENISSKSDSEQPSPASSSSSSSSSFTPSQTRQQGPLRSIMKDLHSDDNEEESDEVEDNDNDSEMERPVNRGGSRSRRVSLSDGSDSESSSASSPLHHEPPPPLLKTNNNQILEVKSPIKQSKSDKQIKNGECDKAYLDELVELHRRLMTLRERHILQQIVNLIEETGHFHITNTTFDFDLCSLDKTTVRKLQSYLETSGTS
ALR inh – blocks human ALR sulfhydryl oxidase activity. P55789. purified ALR, DTT oxidation, H2O2 HRP-luminol luminescence. inhibition, % (no concentration beside the values). 3.8% of 290,000 active. AID 485317;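 active = mean and each replicate at 75% or more; inconclusive = only one of the two met; inactive = neither met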;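 note: stock transfer was 7.5 nL into about 7.5 µL; 0% = neutral wells and 100% = wells with inactivated enzyme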
Target sequence (P55789 whole entry, looked up): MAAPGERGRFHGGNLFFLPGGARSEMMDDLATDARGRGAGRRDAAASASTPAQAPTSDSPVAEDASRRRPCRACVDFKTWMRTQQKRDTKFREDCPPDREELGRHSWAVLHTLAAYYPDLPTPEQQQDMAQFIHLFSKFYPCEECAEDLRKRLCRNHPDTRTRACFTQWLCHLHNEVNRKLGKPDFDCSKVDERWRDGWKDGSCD
T cruzi inh – blocks replication of Trypanosoma cruzi. T. cruzi beta-gal in NIH3T3, luminescence, 90 h. inhibition, % (concentration not given with the values). 1.4% of 300,000 active;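 active = mean inhibition across valid replicates above about 55%, limit read from the data; inconclusive = mean below that limit but half or more replicates reach it; inactive = mean below it, under half of replicates reach it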;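 note: signal also drops with host cell toxicity which is not excluded here; 0% = plate median of DMSO wells and 100% = zero luminescence signal; higher percent means less beta-gal luminescence so fewer parasites; stock transfer was 50 nL into about 50 µL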
Calb FLC – affects C. albicans growth with fluconazole | C. albicans CaCi-2 (fluconazole-resistant clinical isolate) + fluconazole, Alamar Blue growth, 48 h | 0.57% of 300,000 active | AID 1979 | growth inhibition, % (concentration not given with the values);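 active = most replicates above 75%; inconclusive = exactly half above 75%; inactive = most below 75%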;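 note: all wells also contain fluconazole at 8 µg/ml as a sub-toxic cotreatment; 0% = median of DMSO wells and 100% = median of geldanamycin control wells; wells of about 8 µL received 7.5 nL stock; the first replicate is given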
RanGTP-Impb inh – disruptors of Ran-importin-beta complex formation – biochemical, FRET, CFP-Ran, YFP-importin-beta, homogeneous, primary screen; AID 2216; inhibition, % (concentration not given with the values); cell-free CFP-Ran/YFP-importin-beta FRET ratio; 1.1% of 300,000 active;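 active = most replicates above 15%; inconclusive = exactly half above 15%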;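 note: 0% = DMSO wells and 100% = Ran loaded with GDP instead of GTP; wells of about 40 µL received 100 nL stock; the first replicate is given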
Beta cell apopt – blocks beta cell apoptosis | INS-1E cytokine-induced death, ATP luminescence, 48 h; percent of positive-control rescue, neutral wells zero | protection from apoptosis, % (concentration not given with the values) | 0.8% of 300,000 active | AID 435005;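 active = all replicates at 75% or more, or half of them and the mean; inconclusive = half reach 75% but not the mean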;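 note: 0% = cytokine-treated negative control wells and 100% = positive control rescue; higher means more ATP so stronger rescue from cytokine killing; wells of about 40 µL received 100 nL stock; the first replicate is given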
rRNA inh HTS OD600 – recorded beside rRNA inh HTS, whose call it bears; OD600 change, %; measured here: OD600 growth;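 optical density of the mix in the first replicate; 0 = DMSO median and -100 = no signal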
rRNA inh HTS RFP – recorded beside rRNA inh HTS, whose call it bears; RFP signal change, %; measured here: RFP humanized mutant strains;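 first replicate; 0 = DMSO median and -100 = no signal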
* = called active by the depositor; i = inactive; ? = inconclusive; . = no result given; & = joins results of further samples. An excerpt (hit frequency here may not be typical).

SMILES	FGF22 binding	rRNA inh HTS	rRNA inh HTS OD600	rRNA inh HTS RFP	AF4-AF9 inh	ALR inh	T cruzi inh	Calb FLC	RanGTP-Impb inh	Beta cell apopt
CN(C)C1C(=O)C(C(N)=O)=C(O)C2(O)C(=O)C3=C(O)c4c(O)cccc4C(C)(O)C3CC12 (configuration not stated)	.	.	.	.	.	-12	-1	.	-2.6	4
CC[n+]1c(SC)ccc2cc(OC)ccc21	.	.	.	.	.	-7	-1	-50	-1.9	-2
CC(NC(=O)Oc1ccccc1)C(c1cccs1)N1CCOCC1 (configuration not stated)	i	12	1	2.7	-21	0	-5	-17	-2.6	5
O=c1[nH]c(=O)n(CC2CCCO2)c(O)c1/C=C1\C=Nc2ccccc21 (configuration not stated)	i	10	8	0.6	-5.6&2.7	23&6	-14&-20	-2&15	0.7&-1.8	2&3
CCOP(=O)(Cc1cc(C#N)oc1C)OCC	.	.	.	.	.	-8	-25	-14	2.5	-2
CCOC(=O)c1ccc(N=C(CC)c2c(O)n(C)c(=O)n(C)c2=O)cc1	i	11	3	-1.6	-2.1	-6	-14	7	-2.8	.
O=S(=O)(F)c1ccc2nc(-c3cccc(Sc4ccccc4)c3)cc(Cl)c2c1	i	-6	-10	-0.8	-1.2	-16	-4	0	1.9	8
COc1cc(C(C)=O)ccc1OC(=O)N(C)c1ccccc1	i	10	2	2.1	-0.5	-10	-4	-3	5.1	3
CCC(CC)N1CCN(Cc2nc3ccccc3c(=O)n2-c2ccc(F)cc2)CC1	i	9	-1	-1.4	0.2	-1	2	8	0.4	-12
C[N+]1(C)CCc2cc3c(cc2[C@H]1[C@@H]1OC(=O)c2c1ccc1c2OCO1)OCO3	i	0&-2	9&4	-0.3&-2.3	1.6&0.2	-18&-1	-10&10	-10	-4.0&-2.3	-2&-12
C#C[C@@]1(O)CCC2C3CCC4=C/C(=N/OCC(=O)NC(C(=O)O)C(C)O)CC[C@]4(C)C3CC[C@@]21C (some centres not stated)	i	0	0	3.8	-6.1	0	7	-5	0.2	4
COC(=O)C1=C(c2ccc3ccccc3c2)C[C@@H]2CC[C@H]1N2C(=O)NC1Cc2ccccc2C1	i	-10	-10	-6.8	5.8	-3	.	.	.	-8
CCOC(=O)c1c(-n2c(C)cc(/C=C3/C(=O)NC(=O)N(CC)C3=O)c2C)sc2c1CCCC2	.	-3	-3	-3.1	.	6	13	12	-1.6	-3
C=COCCn1c(C)c(C(=O)OCC)c2cc(O)ccc21	.	.	.	.	.	3	-7	-12	-5.1	-2
CCOP(=O)(OCC)C(NC(=O)C(Cl)Cl)C(Cl)(Cl)Cl (configuration not stated)	.	.	.	.	.	4	-1	5	3.6	-2
N=C1c2ccccc2CN1CC(=O)c1ccccc1	i	4	33	6.0	0.9	-1	-9	?	0.3	4
O=c1c2ccccc2nc(-c2ccco2)n1-c1ccccc1	.	.	.	.	.	-7	17	1	-4.8	1
Brc1ccc(C2N3CCCN23)cc1 (configuration not stated)	i	-15	-27	-5.2	-1.9	-22	12	-10	0.3	-7
O=C(Cn1c(NCCCl)nc2ccccc21)c1ccc(Br)cc1	i	-19	-21	0.6	3.2	5	17	-3	-2.3	.
CCCCn1c(O)c(C(C)=NCCCN(C)C)c(=O)[nH]c1=O	.	19	8	0.9	.	-6	45	8	-0.9	-3
Cc1cc(C)c2c(c1)-c1cc(C)nn1C(c1cccnc1)N2 (configuration not stated)	i	0	-24	1.8	7.3	99*	2	3	3.8	-4
CCCC(=O)Nc1cc(C(=O)N2CCC3(CC2)OCCO3)ccc1S(=O)(=O)c1ccc(C)cc1	.	.	.	.	.	-8	-2	-16	.	0
CN(CC1COc2ccccc2O1)c1nc(-c2cccnc2)nc2ccccc12 (configuration not stated)	.	.	.	.	.	3	?	7	-0.5	-9
CCCCCn1c(=O)c(C(=O)NCc2ccco2)c(O)c2ccccc21	i	17	29	1.6	-2.3	-1	16	-5	1.2	35
CC(C)N1CCN(Cc2cc3c(cc2Cl)OCO3)CC1CCO (configuration not stated)	i	-22	-34	-16	-8.6	.	15	-15	2.4	-3
CSc1ccc(C(=O)C2CCCN(Cc3cccnc3)C2)cc1 (configuration not stated)	i	6	2	-0.4	3.1	-32	4	-36	-5.3	2
O=C1NC(=O)N(Cc2cccs2)C(=O)/C1=C/c1ccc(N2CCOCC2)cc1	i	-2	-16	32	-2.3	52	-25	9	-3.4	-3
O=C1OCCC1NC1=NCCC1 (configuration not stated)	.	.	.	.	.	.	-9	3	4.8	-3
COc1ccc(CN2CC=C(c3ccc(F)cc3)CC2)cc1Br	i	-12	-18	0.8	2.4	-3	44	0	-3.9	-4
CCOP(=S)(OCC)SCC(=O)NC(C)(CC)C(=O)O (configuration not stated)	.	.	.	.	.	-5	-1	?	2.0	1
CCCCC(=O)N/N=C/c1c(O)n(C2CC2)c(=S)[nH]c1=O	i	5	18	0.5	-4.8	3	-13	-9	-0.7	-5
CN1C2CCC1CC(=NO)C2	i	6	18	21	-2.8	-2	-14	2	-1.8	-4
CCOP(=O)(C#CC(C)(C)C)C1(O)CCCCC1 (configuration not stated)	.	.	.	.	.	-1	0	-19	0.6	1
COc1ccc(-c2cc(=NCC(=O)O)c3ccccc3o2)cc1	.	.	.	.	.	-1	-12	0	1.7	7
CCCCCCC(Cl)(Cn1ccnc1)c1ccccc1 (configuration not stated)	i	.	.	.	1.3	3	41	-1	-4.3	-1
CNC(=O)Nc1ccc(C(=O)N/N=C\C23CC[C@@H](O)CC2(O)CC[C@@H]2[C@@H]3CCC3(C)C(C4=CC(=O)OC4)CCC23O)cc1 (some centres not stated)	i	0	-1	-1.5	9.8	-17	-5	-4	-0.3	1
NC1=Nc2ccccc2Oc2ccccc21	.	.	.	.	.	-9	0	?	-5.9	-13
Cc1ccc(N2C(=O)NC(=O)/C(=C\c3cc(C)n(-c4ccc(C(=O)O)cc4)c3C)C2=O)cc1	i	13	5	4.4	0.3	97*	-3	-1	8.3	-4
CCCCCn1c(=O)c(C(=O)NCc2ccccc2)c(O)c2ccccc21	i	3	14	2.2	-0.7	1	?	7	-0.9	39
Oc1ccc(/C=N/NP(=S)(c2ccccc2)c2ccccc2)c(O)c1O	.	.	.	.	.	99*	4	104*	0.4	1
O=C(Cn1cnc2sc3c(c2c1=O)CCCC3)NCCC(=O)N1CCC2(CC1)OCCO2	.	.	.	.	.	.	-3	4	4.2	-1
COC(=O)C(O)(c1ccc(NC(=O)c2ccccc2)cc1)C(F)(F)F (configuration not stated)	i	-1	4	-0.8	0.6	.	4	0	-1.8	.
CCOP(=O)(/C=C(\Cl)c1ccccc1)C(O)c1ccc(F)cc1 (configuration not stated)	i	5	7	1.4	-0.9	-1	-1	-6	-3.4	-6
CCN(CC)c1ccc(CN(C)CCc2ccc(OC)c(OC)c2)cc1	.	.	.	.	.	99*	61*	5	3.7	-4
O=C1CCN(C(=O)CNC(=O)Cc2ccccc2)CC1	i	18	14	1.7	-3.5	-22	0	20	2.6	0
COc1ccccc1N=Nc1c(O)[nH]c(=S)[nH]c1=O	i	1	4	63	0.4	.	-11	44	9.0	7
CN1C(=O)/C(=C\c2ccc(N3CCCCCC3)cc2)C(=O)NC1=S	i	-21	-2	64	0.9	-12	-5	2	1.7	-13
C[C@]12C=CC(=O)C=C1C=C[C@@H]1C2CC[C@]2(C)C(=O)CCC12 (some centres not stated)	i	-28*	-19*	0.5*	-2.4	?	-11	-14	8.5	5
C[C@]12CCC3C(CC[C@H]4C[C@H](O)CC[C@]34C)C1[C@@H](O)[C@@H](O)[C@@H]2O (some centres not stated)	i	-3	7	5.7	0.9	-2	.	.	.	-2
C=CCn1c(O)c(/C(C)=N/NC(=S)Nc2ccccc2)c(=O)[nH]c1=O	i	6	6	2.5	-5.9	29	-12	-5	-0.5	-3
Cc1ccc2c(c1)C1CN(C)CCC1N2C(=O)c1cccs1 (configuration not stated)	i	11	-5	-3.4	19	0	10	-6	-1.1	0
O=C(c1cccc([N+](=O)[O-])c1)C12CN3CN(CN(C3)C1)C2	i	10	12	-7.0	-1.0	-10	-11	23	-1.3	-3
COC(=O)C1=C(c2cccc3c2S(=O)(=O)c2ccccc2-3)C[C@@H]2CC[C@H]1N2C(=O)N1CCOCC1	i	-7	-8	-2.0	.	0	.	.	.	-9
C=CCn1c(O)c(C=NCCCOc2ccc(CC)cc2)c(=O)[nH]c1=S	.	.	.	.	.	-2	6	-7	6.2	-2
Cc1ccc(C2CN(C)CC2C(=O)c2ccc(F)cc2)cc1 (configuration not stated)	i	3	-9	-5.4	2.7	.	-5	-1	4.0	.
CC1CCCN(CC(=O)N2CCCc3ccccc32)C1 (configuration not stated)	.	4	9	-2.4	.	0	-11	16	?	-1
C=CCN1CC[C@@]2(C)c3cc(O)ccc3CC1[C@@H]2C	i	.	.	.	-1.5	6	-11	-5	-0.6	-1
Cc1ccc(CN2C3CCCC2CC(NC(=S)NCc2ccccc2)C3)cc1 (configuration not stated)	i	1	-16	1.5	14	-7	50	8	-3.9	11
CCC(=O)N1N=C2C3CCN(CC3)C2C1c1ccccc1 (configuration not stated)	i	13	11	2.6	-35	2	-9	21	0.5	2
Cc1ccc(N2C(=O)NC(=O)C(CCc3ccccn3)(Cc3ccc(F)cc3)C2=O)cc1 (configuration not stated)	i	.	.	.	-1.4	-2	-12	25	-1.0	.

Single values from above.
Result of C=CCn1c(O)c(/C(C)=N/NC(=S)Nc2ccccc2)c(=O)[nH]c1=O under Calb FLC: -5
Result of O=C(Cn1cnc2sc3c(c2c1=O)CCCC3)NCCC(=O)N1CCC2(CC1)OCCO2 under Beta cell apopt: -1

More results:
SMILES	FGF22 binding	rRNA inh HTS	rRNA inh HTS OD600	rRNA inh HTS RFP	AF4-AF9 inh	ALR inh	T cruzi inh	Calb FLC	RanGTP-Impb inh	Beta cell apopt
O=C1NC(=O)N(Cc2ccc(F)cc2)C(=O)/C1=C\c1ccc([N+](=O)[O-])s1	i	-22	12	64	2.8	.	22	5	2.6	2
O=C(CN1C(=O)CCSc2ccccc21)N1CCC2(CC1)OCCO2	.	.	.	.	.	-4	6	-6	1.2	-9
O=C(Nc1ccccc1OC(=O)N1CCCCC1)N1CCCCC1	i	11	5	4.9	-57	-1	0	?	-4.8	-5
C[C@H]1C/C=C/[C@H]2[C@H](O)[C@H](C)[C@@](C)(O)[C@H]3[C@H](Cc4ccccc4)NC(=O)[C@]32[C@H](O)/C=C/[C@](C)(O)C1	.	.	.	.	.	-4	-5	0	0.2	14
COc1ccccc1N1CCN(Cc2c(F)cccc2Cl)CC1	.	.	.	.	.	31	1	-5	-3.6	12
Fc1cccc(F)c1CN1CCN(Cc2c(F)cccc2F)CC1	.	.	.	.	.	-5	-7	.	5.7	-5
O=C(C1CC(c2ccc(F)cc2)=NO1)N1CCC2(CC1)OCCO2 (configuration not stated)	.	.	.	.	.	-4	-9	8	3.1	.
Cc1ccc(Cn2ccccc2=N)cc1	i	3	5	-1.5	2.3	-6	-16	-1	2.7	-3

Screens as filed in PubChem BioAssay.
